Arbovirus anti: antivirals against arbovirus infection. inhibition, % at 10 µM. arbovirus infection cell-based antiviral screen. 0.37% of 200,000 active;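 active = inhibition from about 30%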;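 note: bluetongue infection of BSR cells; cell survival read as ATP light after 72 h; 0% = infected wells without compound and 100% = uninfected wells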
RecA splice inh: inhibitors of M. tuberculosis RecA intein splicing; P9WHJ3; cell-free RecA intein splicing, fluorescence; inhibition, %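 (about 9 µM by stock and volumes)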; 0.75% of 290,000 active; in the data active = inhibition above about 30%; inconclusive = no clear call, values can overlap the other calls;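 note: 0% = vehicle wells and 100% = reference inhibitor control wells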
Target sequence (P9WHJ3 whole entry, looked up, canonical isoform): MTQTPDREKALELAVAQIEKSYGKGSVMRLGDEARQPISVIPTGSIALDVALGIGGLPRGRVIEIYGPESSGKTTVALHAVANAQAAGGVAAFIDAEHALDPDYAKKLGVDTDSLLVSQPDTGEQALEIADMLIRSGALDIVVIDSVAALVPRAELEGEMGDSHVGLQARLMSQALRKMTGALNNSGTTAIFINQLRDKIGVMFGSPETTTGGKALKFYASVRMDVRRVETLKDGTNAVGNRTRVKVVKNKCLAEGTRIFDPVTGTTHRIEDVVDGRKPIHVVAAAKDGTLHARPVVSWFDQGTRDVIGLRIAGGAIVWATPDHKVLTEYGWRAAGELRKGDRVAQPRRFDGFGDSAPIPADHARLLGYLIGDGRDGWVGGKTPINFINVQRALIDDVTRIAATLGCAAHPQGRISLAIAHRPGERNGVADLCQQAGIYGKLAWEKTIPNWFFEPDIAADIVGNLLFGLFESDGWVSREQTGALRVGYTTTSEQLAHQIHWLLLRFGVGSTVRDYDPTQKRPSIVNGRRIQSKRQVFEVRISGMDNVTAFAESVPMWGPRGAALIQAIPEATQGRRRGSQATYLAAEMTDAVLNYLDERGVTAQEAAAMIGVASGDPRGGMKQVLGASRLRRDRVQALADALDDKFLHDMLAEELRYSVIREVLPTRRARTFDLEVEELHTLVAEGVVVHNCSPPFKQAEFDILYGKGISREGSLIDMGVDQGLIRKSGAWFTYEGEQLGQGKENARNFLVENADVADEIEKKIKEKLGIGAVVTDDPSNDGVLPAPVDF
Mtb growth: M. tuberculosis H37Rv growth inhibitors, H37Rv strain (AID 1626). M. tuberculosis H37Rv growth inhibition; higher % means a stronger effect. one-dose inhibition, % at 10 µM; IC50 in µM for titrated hits. 0.95% of 220,000 active;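 active = confirmed in a dose series; inconclusive = inhibition above 80% but not taken into the dose series; inactive = below 80% or under 30% at every dose of the series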;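 note: bacteria incubated seven days before Alamar blue readout; 0% = bacteria only wells and 100% = bacteria with antibiotic wells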
Mtb betalactam: beta-lactam sensitization of Mtb H37Rv; M. tuberculosis H37Rv growth with meropenem, percent inhibition; hits of this screen are not shown here; inhibition, % at 25 µM; 0.27% of 330,000 active; AID 434955;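 active = about 74% or more and at least 40 points above the plate without the antibiotic, then above 30% in a dose series; inconclusive = first-round hits that could not be retested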;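 note: growth measured after seven days incubation then overnight dye step; 0% = bacteria only wells and 100% = bacteria with antibiotic; twin plates without the antibiotic show which effects depend on it; some results filed as inactive read as strong as hits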
YopH PTP inh: blocks Yersinia enterocolitica YopH tyrosine phosphatase | 0.16% of 140,000 active | fluorescence Ex485/Em525 | inhibition, %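 (about 10 µM by stock and volumes)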;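 active = inhibition of 50% or more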;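 note: controls were vehicle for no effect and minimum signal wells for full effect; inactives centre near -20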
Arbovirus anti repeat: second read-out of Arbovirus anti, no call of its own (marks repeat the call); inhibition, %; measured here: 10K subset replicate screen; many hits read low in the repeat;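 first of two repeat runs on a subset; 0% = infected and 100% = uninfected wells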
The depositor's hits bear a star; i = inactive; ? = inconclusive; . = no result given. This is a subset (hit frequency here may not be typical).

SMILES	Arbovirus anti	RecA splice inh	Mtb growth	Mtb betalactam	YopH PTP inh	others
CCOc1ccc(/C=N/n2c(COc3ccccc3)n[nH]c2=S)cc1OC	.	1.6	.	?	.
Cn1c(CN2CCOCC2)nc2cc(NC(=O)c3ccc(Cl)cc3)ccc21	-6.5	-0.4	-7.4%	-1.1	-23.9
COC(=O)C1=NN(c2ccccc2)C2C(=O)N(c3ccccc3OC)C(=O)C12 (stereo not given)	-8.8	-14.7	-7.7%	-3.3	-14.4
CCn1c(SC/C=C/c2ccccc2)nnc1-c1cnccn1	2.8	0.8	-6.4%	-2.3	-48.5
Cc1nc2sc3c(c2c(=N)n1N)CC(C)(C)OC3	4.6	1.3	3.3%	-5.1	0.2
Cc1ccc(-n2nnnc2SCC(=O)N2c3ccccc3NC(=O)C2(C)C)cc1	4.6	3.6	-11.9%	-2.1	-20.9
Cc1ccccc1N1CC(C(=O)N2CC(C)OC(C)C2)CC1=O (stereo not given)	.	-4.1	.	-5.8	.
COc1ccc(/C=C(\NC(=O)c2ccc(Cl)cc2)C(=O)NCCCn2ccnc2)cc1OC	.	-5.8	.	-4.9	.
CC1CCCCN1C(=O)CSc1nnc2c(n1)[nH]c1ccc(F)cc12 (stereo not given)	.	-2.2	.	2.2	.
COc1ccc(C)cc1NC(=O)c1cc(S(=O)(=O)N2CCCC2)cn1C	.	-1.0	.	-5.3	.
COc1cccc(CN2CC(C(=O)N(C)CC3CCOCC3)CCC2=O)c1 (stereo not given)	.	0.4	.	-6.1	.
COc1ccc(/C=N\Nc2ccc([N+](=O)[O-])cc2[N+](=O)[O-])c(C(=O)O)c1OC	.	5.8	-17.6%	-13.4	.
Cc1cccc2cc(-c3nc4ccc(C(=O)O)cc4[nH]3)c(=O)oc12	.	i	.	0.4	.
N#CCC(=O)Nc1ccc(C(=O)NCc2cccc(Cl)c2)cc1	.	5.3	-5.1%	0.5	.
Cn1cc(C2N3CC4(C)CN2CC(C)(C3)C4=O)c2ccccc21 (stereo not given)	2.9	-1.0	-0.4%	7.3	.
COc1ccc2cc(CN(CC3CCCO3)C(=S)NCc3ccco3)c(=O)[nH]c2c1 (stereo not given)	-1.9	3.0	0.3%	1.7	.
NC(=O)[C@@H]1CCCCNc2c(I)cc([N+](=O)[O-])cc2C(=O)N[C@@H](CCC(=O)O)C(=O)N[C@@H](CO)C(=O)N1	5.2	12.8	-4.9%	-2.3	-13.8
CCCCCCSc1ncc(C#N)c(N)n1	10.1	-4.7	10.3%	-1.7	-23.1
O=C(CCNS(=O)(=O)c1cccs1)NCc1cccs1	-4.1	.	-7.5%	7.0	-46.0
Cc1cccc(NC(=O)CN2C(=O)N/C(=C\c3cccn3-c3cccc(C(=O)O)c3)C2=O)c1	-4.3	-1.2	7.7%	-3.1	.

Next section; the last 3 above are carried over.
SMILES	Arbovirus anti	RecA splice inh	Mtb growth	Mtb betalactam	YopH PTP inh	others
CCCCCCSc1ncc(C#N)c(N)n1	10.1	-4.7	10.3%	-1.7	-23.1
O=C(CCNS(=O)(=O)c1cccs1)NCc1cccs1	-4.1	.	-7.5%	7.0	-46.0
Cc1cccc(NC(=O)CN2C(=O)N/C(=C\c3cccn3-c3cccc(C(=O)O)c3)C2=O)c1	-4.3	-1.2	7.7%	-3.1	.
COc1ccc2c(c1)C1(Nc3ccccc3-c3nc4ccccc4n31)C(=O)N2 (stereo not given)	-9.0	1.9	-2.1%	1.4	10.2
Cc1cc(C)n(-c2ccc(C(=O)NCCCN3CCOCC3)cc2)n1	11.5	0.0	-3.6%	-2.4	.
Cn1c(=O)oc2cc(S(=O)(=O)CCC(=O)NCCc3ccccc3)ccc21	.	0.3	.	2.2	.
O=C(Nc1ccc2oc(-c3ccccc3)nc2c1)c1ccccc1F	-4.0	3.9	-2.9%	-6.3	-12.8
COc1ccc(Br)c(C(=O)NC(C)(C)CO)c1	.	-2.1	-4.6%	0.9	.
O=c1[nH]c(/C=C\c2cccc(O)c2)nc(O)c1[N+](=O)[O-]	.	1.0	.	2.9	.
COc1ccc(O)c(C(=O)c2cnn(C(=O)c3cc(C)oc3C)c2)c1	-5.9	-12.3	-1.6%	24.6	-16.8	Arbovirus anti repeat=-3.9
O=C(NNC(=O)c1ccncc1)c1ccccc1	.	-2.0	.	3.6	.
O=C(CN1c2ccccc2S(=O)(=O)c2ccccc21)NCc1ccccc1	.	-5.7	.	5.3	.
CC(NC(=O)c1cc2ccccc2o1)c1ccccc1 (stereo not given)	-4.6	5.2	-0.6%	-2.0	.
CC(=O)Nc1sc(C)c(C)c1C(=O)OCC(=O)Nc1cc(S(C)(=O)=O)ccc1Cl	.	-1.1	-4.3%	-3.7	.
C=CCSC1=C(C#N)C(c2ccccc2OCC)CC(=O)N1 (stereo not given)	9.6	6.2	2.9%	-0.8	-31.2
O=C(N[C@@H](Cc1ccccc1)C(=O)NCCc1c[nH]c2ccccc12)c1ccco1	.	2.0	.	9.9	.
Cc1ccc(N(C(=O)c2snc(C(N)=O)c2N)C(C(=O)NC2CCCC2)c2ccncc2)cc1 (stereo not given)	.	-2.7	.	-4.0	.
COc1ccc(C)cc1NC(=O)C1CCN(S(=O)(=O)c2ccccc2)CC1	.	-1.4	.	11.1	.
COc1ccc(N(C(=O)c2ccco2)C(C(=O)NC2CCCC2)c2ccco2)cc1OC (stereo not given)	.	0.3	.	-8.3	.
Cc1ccc(NC(=S)N(N)CCO)cc1	5.9	0.6	-4.8%	2.3	.
O=C(Nc1ccccc1)Nc1ccc(C(=O)N2CCOCC2)cc1	-7.6	0.7	4.8%	-4.3	-3.6
COCCNC(=O)C1CC(c2ccc([N+](=O)[O-])cc2)=NO1 (stereo not given)	1.7	2.0	-4.6%	-1.4	-26.6
CC(=O)c1ccc(N2CCN(C(=O)Nc3ccc(Cl)cc3)CC2)cc1	5.2	.	-1.1%	-2.7	.
Cc1ccc(-c2nn(CC(=O)NC(C)c3ccccc3)c(=O)c3ccccc23)cc1 (stereo not given)	1.0	-3.2	-12.7%	-0.3	7.3
CCCCC1S/C(=N/N=C/c2ccco2)NC1=O (stereo not given)	0.3	-0.4	13.8%	6.5	-28.1
CC1CCc2nc(NC(=O)c3ccc(N4C(=O)CCC4=O)cc3)sc2C1 (stereo not given)	.	-0.9	.	-13.8	.
CC(=O)c1c(C)n(-c2ccc(C)cc2)c2ccc(O)cc12	.	-0.1	.	-4.3	.
CCN(CC)C(=O)C1CCCN(Cc2ccc(N(C)C)cc2)C1 (stereo not given)	8.9	-2.3	3.9%	-0.8	.
CCOc1ccc(NC(=S)N2CCN(c3ccc(N4CCOCC4)nn3)CC2)cc1	-5.7	-5.1	10.1%	42.1	.
COCCCNC(=O)CCn1c(=O)c2ccccc2n(CC(=O)NCCc2ccc(OC)c(OC)c2)c1=O	2.4	0.1	3.8%	-6.8	.
C=C1c2cc(C)ccc2NC(=O)N1c1ccc(C)cc1	2.7	-11.3	-0.6%	-8.9	-19.5
O=C(Nc1ccc(Cl)cc1)c1ccc(-n2cccn2)c([N+](=O)[O-])c1	5.5	2.2	9.5%	10.0	-3.6
CC(O)CNCCCOc1ccc(Cl)cc1C(C)(C)C (stereo not given)	-31.1	2.0	12.8%	-4.3	.
O=C(/C=C/c1ccccc1)Nc1ccc(CN2CCOCC2)cc1	4.3	-2.8	-0.5%	0.6	-30.9
O=C(NCc1ccc2c(c1)OCO2)C1CCCN1C(=O)Nc1ccc(F)cc1 (stereo not given)	-5.9	-0.2	-5.1%	-5.7	-9.5
O=C(CN1CCCCC1)N/N=C/c1ccc(Cl)cc1Cl	.	0.0	.	-2.4	.
Cc1ccc(/C=N/N2CCN(Cc3ccccc3)CC2)o1	-0.2	-2.5	-14.1%	0.7	-14.5
CC(=O)c1ccc(N2CCN(C(=O)CCN3C(=S)NC(C)(C)CC3C)CC2)cc1 (stereo not given)	0.9	.	-0.1%	0.2	.
Cc1ccc(C)n1-c1nnc(N2CCC(C(=O)NCCCN3CCN(C)CC3)CC2)s1	.	1.8	.	?	.
O=C(CCNC(=O)c1ccc(Br)cc1)NCc1cccnc1	.	3.2	.	-11.9	.
Cc1c(C(=O)C(=O)NCc2cccs2)c2ccccc2n1C	-3.2	2.3	-7.2%	-6.4	.
COc1cccc(/C=C2\SC(=S)N(N3C(=O)CCCC3=O)C2=O)c1	-1.5	0.0	6.5%	-4.9	.
CC(C)NC(=S)NNc1ncnc2sc3c(c12)CC(C)(C)OC3	.	-4.7	.	-5.9	.
Cc1cc(C)c(S(=O)(=O)NCC2CCC(C(=O)NCc3ccc4c(c3)OCO4)CC2)c(C)c1 (stereo not given)	-1.9	0.5	11.9%	1.3	-37.8
COC(=O)c1c(NC(=O)c2ccoc2C)sc2c1CCC2	2.9	0.1	-3.5%	18.5	-18.0
NC(=O)c1oc2ccccc2c1NC(=O)c1ccccc1	7.0	1.5	2.9%	-2.9	3.6
CC1CCCC(NC(=S)Nc2ccc(SC(F)F)cc2)C1C (stereo not given)	-43.6	9.0	?	89.5	10.2
O=C(NCCC1=CCCCC1)C1CCCN(S(=O)(=O)c2cccnc2)C1 (stereo not given)	-3.6	-1.3	-14.1%	-2.3	-41.7	Arbovirus anti repeat=4.7
O=S1(=O)C[C@H]2NC(=S)N(c3ccccc3)[C@H]2C1	1.4	3.3	-0.9%	0.5	-13.7
CCOc1ccc(CN(CCO)CCO)cc1C(=O)OC	-3.4	-1.4	-5.0%	-1.7	-24.5
O=C(CC1S/C(=N/N=C/C=C/c2ccccc2)NC1=O)Nc1ccc(C(=O)O)cc1 (stereo not given)	10.8	-1.8	3.1%	-1.8	.
COC(=O)c1sc(NC(=O)c2c(F)cccc2F)c(C#N)c1C	8.5	-1.7	2.4%	8.7	.
O=C(CSc1oc(-c2ccco2)nc1S(=O)(=O)c1ccccc1)NCC1CCCO1 (stereo not given)	0.8	2.6	-8.9%	-4.2	-26.4
COc1ccc(OC)c(NC(=O)CSc2nnc(C3CCCCC3)o2)c1	0.4	-0.8	4.0%	5.8	.
CC(C)(C)c1ccc(C(=O)O/N=C(\N)c2ccccc2)cc1	.	1.1	.	5.3	.
COc1ccc(N=C2S/C(=C\c3ccc(Cl)c([N+](=O)[O-])c3)C(=O)N2CCN(C)C)cc1	.	17.8	.	100.0	.
Cc1cccc(C(=O)OCC(=O)N2CCCC2=O)c1[N+](=O)[O-]	.	-0.2	.	1.9	.
CCCn1c(=O)c(C(=O)NNS(=O)(=O)c2ccc(Cl)cc2)c(O)c2ccccc21	-27.1	6.8	-1.9%	5.5	-30.8
COc1ccc(S(=O)(=O)NCCc2c[nH]c3ccccc23)cc1OC	.	2.6	.	3.0	.
Cc1cc(C)cc(NC(=O)c2ccc([N+](=O)[O-])o2)c1	-28.7	-4.4	9.59µM*	.	.
O=c1ccc(N=Nc2ccccc2)ccc1O	.	-4.3	69.8%	94.8	.
Cc1ccc(S(=O)(=O)NCC(=O)Nc2ccc(C(F)(F)F)cc2)cc1	6.0	0.7	-2.4%	1.1	5.9
Cc1cccc(NC(=O)c2ccc([N+](=O)[O-])s2)c1C	-38.2	-2.8	53.1%	62.9	-2.4

Next part:
SMILES	Arbovirus anti	RecA splice inh	Mtb growth	Mtb betalactam	YopH PTP inh	others
COC(=O)C(C#N)c1nc2ccccc2nc1N1CCN(Cc2ccc3c(c2)OCO3)CC1 (stereo not given)	.	2.4	-4.3%	0.6	.
CC(C)(C)OC(=O)N1CCC(C(N)=O)CC1	6.3	-0.7	-6.9%	-5.3	-21.7	Arbovirus anti repeat=-0.6
CSC(=N/N=C(\N)c1cnccn1)SC	-2.8	-1.9	-5.1%	5.7	-28.7
c1ccc(-c2nccc(-c3ccco3)n2)nc1	-3.9	0.0	4.3%	85.2	.
Cc1cc(SCCC(=O)O)nc2c(C)cccc12	6.7	-2.1	-7.0%	?	-10.2
CCCc1c(C(=O)NNc2ccccc2OC)cnn1-c1ccccc1	.	1.0	6.1%	-1.2	.
O=C(NN1CCOCC1)c1cccc2ccccc12	0.0	-0.6	-3.2%	10.2	-20.3
Cc1csc(NC(=O)CSc2nnc(Cc3cccn3C)n2-c2ccc(F)cc2)n1	0.9	2.0	7.0%	-1.4	-20.4	Arbovirus anti repeat=0.2
CCOC(=O)N1CCC(NC(=O)c2cc3sccc3n2CC)CC1	0.4	6.0	-3.0%	-9.2	-43.8
O=C(Nc1cccc(NC(=O)c2ccco2)c1)c1ccc2c(c1)OCCO2	-4.2	-0.4	.	5.7	.
COc1cc(NC(=O)c2ccco2)ccc1NC(=O)c1ccccc1Cl	-10.1	0.1	66.1%	55.9	37.4
CCN(CCNC(=O)C1CCN(S(=O)(=O)c2c(C)noc2C)CC1)c1ccccc1	-6.0	-1.3	-0.3%	-11.2	.
CCCOc1ccccc1N1C(=O)CC(N(O)c2ccccc2)C1=O (stereo not given)	1.3	.	-4.4%	9.3	.

From PubChem BioAssay
